Source: PubChem
PrP UTR inh = suppresses PrP 5' UTR mRNA reporter expression. cell-based PrP 5' UTR mRNA reporter, plate reader. inhibition, % (concentration not given with the values). hit rate 0.35% among 340,000. AID 488862;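 active = every replicate at 50% or more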;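 note: 0 = median of the neutral control wells; tested in H4 reporter cells; numbers are from one replicate; inactives centre near -14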
Bead autofluor = flagged as autofluorescent in microsphere protease counterscreen; compound autofluorescence counterscreen, microsphere flow cytometry; hits give high values; fluorescence intensity (concentration not given with the values); hit rate 3.1% among 360,000; AID 624483;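 active = at least 3 SD above the mean of all compounds, about 16000 in these data; inconclusive = too few beads counted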;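 note: 100 nL of 1 mM stock went into each well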
Sa RN4220 lethal = kills Staphylococcus aureus RN4220. S. aureus RN4220 growth, OD600, 16 h. inhibition, % (concentration not given with the values). AID 1259311. hit rate 0.33% among 330,000;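 active = z-score of -3 or lower and OD600 up to 0.18 on both plates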;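 note: plate controls were untreated cells for no effect and reference antibiotic for full effect; stock transfer was 100 nL into about 80 µL; one replicate is shown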
ugtP null kill = kills S. aureus RN4220 lacking UgtP | S. aureus RN4220 ugtP deletion, OD600 growth, 16 h; some inactives read as strong as hits | growth inhibition, % (test concentration not listed) | hit rate 0.54% among 330,000 | AID 1259309;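 active = z-score under -3 and OD600 up to 0.15 on both plates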;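 note: plate controls were untreated wells for no effect and antibiotic for full effect; wells of about 80 µL received 100 nL stock; the first replicate is given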
Mtb hypoxia rep = reduces hypoxia-regulated biosensor signal in M. tuberculosis. M. tuberculosis hypoxia-regulated fluorescent reporter, fluorescence. fluorescence inhibition, % (no concentration beside the values). hit rate 0.1% among 300,000;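 active = 35 to 45% if threefold the growth effect, above 45% if 1.5-fold the growth effect; inactive = the rest, general growth blockers included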;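 note: wells of about 50 µL received 100 nL stock; 0% = vehicle wells and 100% = reference inhibitor wells; whole bacteria with a GFP reporter of the hypoxia response; strong numbers were not always called active; many hits fall short of the cut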
BJeLR viability = kills HRASV12-expressing BJeLR cells; inhibition, % (no concentration beside the values); hit rate 0.17% among 300,000; BJeLR (HRASV12) viability, CellTiter-Glo ATP luminescence, 48 h; reference of the scale not given here;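 active = replicate mean above 50%; inconclusive = above 50% but judged a plate artefact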;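 note: 50 nL library stock added to about 25 µL; numbers are from one replicate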
Mtb hypoxia rep growth = recorded beside Mtb hypoxia rep, whose call it bears; growth inhibition, %; measured here: M. tuberculosis growth (absorbance);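 0% = vehicle and 100% = reference antibiotic; read after six days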
The depositor's hits bear a star; ? = inconclusive; nt = no result given.

SMILES	PrP UTR inh	Bead autofluor	Sa RN4220 lethal	ugtP null kill	Mtb hypoxia rep	Mtb hypoxia rep growth	BJeLR viability
O=C1CC(C(=O)Nc2ccc(O)c(C(=O)O)c2)C(c2ccccc2)O1 (stereo not drawn)	-22.1	9962	4.1	-2.8	17.2	5.5	-1.3
O=C(NCc1cccnc1)c1ccc(COc2ccccc2Br)cc1	-3.5	2445	-1.1	-6.1	-2.2	9.0	5.9
CN1CCN(NS(=O)(=O)c2ccc(Cl)s2)CC1	-2.9	9995	7.9	-0.5	5.6	5.8	3.0
COc1cccc(C(=O)NCC(=O)N/N=C/c2cccc(OC(=O)c3ccc([N+](=O)[O-])cc3)c2)c1	-14.3	1997	nt	nt	nt	nt	-0.7
CCC(=O)N1CCc2cc(S(=O)(=O)NCCC(=O)NCc3ccc(F)cc3)ccc21	-16.0	4899	5.0	14.3	14.8	12.2	11.5
O=C(CCn1cnc2ccccc2c1=O)Nc1cccc(Cl)c1Cl	-48.5	4448	6.4	4.3	6.6	11.2	12.7
CCN(c1ccccc1)S(=O)(=O)c1ccc(F)cc1	-9.2	11166	9.6	-3.5	10.1	7.9	2.7
CCNN=C(Cc1nc2ccccc2[nH]1)c1ccccc1	nt	nt	-3.4	5.7	4.3	8.5	nt
Cc1ccc(OCC(=O)Nc2ccccc2Sc2ccc(Cl)cc2)c([N+](=O)[O-])n1	-25.4	2618	-0.5	1.4	6.8	7.9	7.5
COc1ccc(-c2onc3ccc(Br)cc23)cc1	-26.2	2796	11.0	-6.5	-3.6	-5.9	-0.9
CCOC(=O)Cc1csc(NC(=S)NC(=O)c2ccc(Cl)cc2)n1	2.0	2731	0.5	14.0	nt	nt	-4.3
CS(=O)(=O)c1cccc(C(=O)Nc2ccccc2Cc2ccccc2)c1	-17.0	5702	1.0	4.1	10.8	-4.8	2.3
CCOC(=O)c1cnc2c(ccc3ccccc32)c1Cl	-48.2	3720	14.9	5.5	-1.4	0.0	-5.2
COC(=O)c1nc(-c2ccccc2)oc1N(C)C	-13.7	?	5.6	3.1	1.3	1.3	3.9
O=C(COC(=O)c1ccc([N+](=O)[O-])s1)NCc1ccccc1	-10.6	2558	10.0	7.1	5.2	2.0	-14.9

Shown in markdown: 3 of the compounds above.
| SMILES | PrP UTR inh | Bead autofluor | Sa RN4220 lethal | ugtP null kill | Mtb hypoxia rep | Mtb hypoxia rep growth | BJeLR viability |
| --- | --- | --- | --- | --- | --- | --- | --- |
| O=C1CC(C(=O)Nc2ccc(O)c(C(=O)O)c2)C(c2ccccc2)O1 (stereo not drawn) | -22.1 | 9962 | 4.1 | -2.8 | 17.2 | 5.5 | -1.3 |
| CCOC(=O)c1cnc2c(ccc3ccccc32)c1Cl | -48.2 | 3720 | 14.9 | 5.5 | -1.4 | 0.0 | -5.2 |
| O=C(NCc1cccnc1)c1ccc(COc2ccccc2Br)cc1 | -3.5 | 2445 | -1.1 | -6.1 | -2.2 | 9.0 | 5.9 |

Following part:
SMILES	PrP UTR inh	Bead autofluor	Sa RN4220 lethal	ugtP null kill	Mtb hypoxia rep	Mtb hypoxia rep growth	BJeLR viability
Cc1nn(S(=O)(=O)c2ccc(Cl)cc2)c(C)c1S(=O)(=O)N1CCOCC1	-18.1	4673	0.3	9.3	8.4	-0.4	0.8
COc1ccc(C(=O)Nc2nc3nc(-c4ccccc4)cc(=O)n3[nH]2)cc1	-8.9	4131	6.8	2.8	0.9	8.4	nt
CCC(=O)N1CC(=O)Nc2ccc(Br)cc2C1c1ccccc1 (stereo not drawn)	-9.6	2070	1.6	-5.4	-1.8	-2.2	-1.9
O=C(NCC1COc2ccccc2O1)c1ccco1 (stereo not drawn)	2.6	?	1.4	-1.4	11.3	13.4	0.3
CC(=O)Nc1ccc(S(=O)(=O)NCC(=O)OC(C)c2ccccc2Cl)cc1 (stereo not drawn)	-11.3	2650	-2.3	7.3	8.9	3.3	1.0
COC(=O)c1ccc(C(=O)NC2CCCN(Cc3ccc(Cl)cc3)C2)nc1 (stereo not drawn)	-14.0	4976	2.2	6.4	2.0	7.5	0.0
CCOC(=O)Cn1nnnc1CN(Cc1ccccc1)Cc1cc2cc(CC)ccc2[nH]c1=O	-8.3	12869	-3.0	-7.8	-4.9	1.0	4.6
Clc1ccc(Cc2nnc(-c3cccs3)o2)cc1	-48.6	4374	0.8	-13.5	nt	nt	-9.8
C[C@H](NC(=O)[C@H]1N2C(=O)c3ccccc3C2SC1(C)C)C(=O)NCc1ccncc1 (stereo partly drawn)	-25.7	5267	-2.0	-6.9	-3.1	7.1	0.3
CC(=O)SCCC(=O)Nc1ccccc1	-22.3	17839*	3.1	2.8	1.4	-2.3	-0.6
COC(=O)/C(=C/c1cccnc1)NC(=O)c1ccccc1	-15.9	1952	0.2	1.0	4.9	-1.2	4.2
COC(C[C@H](O)C[C@@H](O)COCc1ccccc1)OC	-7.7	3583	nt	nt	nt	nt	-18.9
CCOC(=O)C1CCCN(C(=O)c2ccc(Cl)c(S(=O)(=O)N3CCCCC3)c2)C1 (stereo not drawn)	-48.6	3587	nt	nt	nt	nt	6.6
O=C(NC(=S)NNC(=O)[C@H]1C[C@@H]1c1ccccc1)c1cccc(F)c1	11.7	3701	36.1	13.6	-0.4	0.5	4.6
O=S(=O)(Nc1nc2ccc(S(=O)(=O)N3CCCC3)cc2s1)c1ccc(F)cc1	-29.5	6123	6.7	-10.2	-6.1	3.9	-15.8
CCc1ccc(/C=C2\SC(=S)N(CCCC(=O)Nc3nccs3)C2=O)cc1	-6.2	2422	6.6	0.7	1.7	6.1	-9.2
CC1(C)C2CC[C@]3(C)C(CC=C4[C@@H]5C[C@@](C)(CO)CC[C@]5(C(=O)O)CC[C@]43C)[C@@]2(C)CC[C@@H]1O (stereo partly drawn)	nt	5477	32.3	7.9	nt	nt	0.0
COC(=O)C1CCN(CC(=O)NC(=O)Nc2ccccc2F)CC1	-25.9	3823	-1.3	-0.7	2.1	1.5	nt
COc1ccc(-c2nc(-c3cccnc3)no2)cc1OC	-21.5	3897	6.4	19.3	0.9	4.5	4.0
CC(C)OCCCNC(=O)CNC(=O)c1cccs1	-22.9	11568	6.0	2.5	6.5	1.8	6.2
COC(=O)c1ccccc1NC(=O)CNc1cc(Cl)ccc1N1CCOCC1	-15.9	2187	-3.3	-9.2	5.6	6.7	9.6
CCc1nnc(NC(=O)CSc2nnc(-c3cccnc3)n2CC)s1	-1.3	4691	1.7	2.3	nt	nt	-0.3
Cc1ccccc1C(=O)Nc1ccccc1NC(=O)c1ccccc1C	-20.4	3764	-0.6	1.4	-7.0	-2.0	-3.0
O=c1[nH][nH]c2cc(=O)n(-c3ccc(Cl)cc3)nc12	-30.7	1995	nt	nt	nt	nt	-9.5
COC(=O)C1=C(C(=O)OC)[C@@H]2N(C)c3ccccc3[C@@]23C[C@@H](CO)N(C(=O)NCCBr)C3=N1	-14.6	2977	nt	nt	nt	nt	-18.2
O=C(NCc1ccc(N2CCCC2=O)cc1)Nc1ccccc1	-9.4	3170	4.3	1.6	17.5	1.2	-0.3
Cc1noc(NS(=O)(=O)c2ccc(NC(=O)CCCOc3ccc(Cl)cc3Cl)cc2)c1C	-18.5	9309	3.4	3.1	20.1	12.1	-1.5
COCc1cc(=O)[nH]c(=S)[nH]1	-32.2	2454	4.1	-5.1	5.4	5.6	2.4
Cc1ccc(N2CCN(CCCCN3C(=O)C4CCCN4C3=O)CC2)cc1 (stereo not drawn)	-18.0	2306	2.7	3.4	8.3	5.2	9.0
Oc1oc(-c2ccccc2)nc1C=NCc1ccncc1	-9.0	10217	2.5	-2.7	1.3	2.7	-3.1

By substructure, the compounds so far with a nitro group on carbon.
SMILES	PrP UTR inh	Bead autofluor	Sa RN4220 lethal	ugtP null kill	Mtb hypoxia rep	Mtb hypoxia rep growth	BJeLR viability
COc1cccc(C(=O)NCC(=O)N/N=C/c2cccc(OC(=O)c3ccc([N+](=O)[O-])cc3)c2)c1	-14.3	1997	nt	nt	nt	nt	-0.7
Cc1ccc(OCC(=O)Nc2ccccc2Sc2ccc(Cl)cc2)c([N+](=O)[O-])n1	-25.4	2618	-0.5	1.4	6.8	7.9	7.5
O=C(COC(=O)c1ccc([N+](=O)[O-])s1)NCc1ccccc1	-10.6	2558	10.0	7.1	5.2	2.0	-14.9

Sorted by formula weight (falling): part of the list above.
SMILES	PrP UTR inh	Bead autofluor	Sa RN4220 lethal	ugtP null kill	Mtb hypoxia rep	Mtb hypoxia rep growth	BJeLR viability
COC(=O)c1ccc(C(=O)NC2CCCN(Cc3ccc(Cl)cc3)C2)nc1 (stereo not drawn)	-14.0	4976	2.2	6.4	2.0	7.5	0.0
COC(=O)C1CCN(CC(=O)NC(=O)Nc2ccccc2F)CC1	-25.9	3823	-1.3	-0.7	2.1	1.5	nt
CCN(c1ccccc1)S(=O)(=O)c1ccc(F)cc1	-9.2	11166	9.6	-3.5	10.1	7.9	2.7

The listing continues:
SMILES	PrP UTR inh	Bead autofluor	Sa RN4220 lethal	ugtP null kill	Mtb hypoxia rep	Mtb hypoxia rep growth	BJeLR viability
O=C(COC(=O)CCC(=O)c1ccc(F)cc1)Nc1ccc2[nH]c(=O)[nH]c2c1	19.4	4208	nt	nt	nt	nt	17.5
O=C(C1CCCN(S(=O)(=O)c2cccc3nonc23)C1)N1CCN(c2ccccc2)CC1 (stereo not drawn)	-6.9	10897	1.5	6.3	-1.3	-2.0	3.2
COc1ccc2c(c1)CCc1cn3nc(C)cc3nc1-2	3.6	2959	-2.2	6.5	0.9	11.3	3.5
CCOC(=O)c1[nH]c(COC(=O)c2ccccc2NC(=O)c2ccco2)c(C(=O)OCC)c1C	-9.2	9061	3.2	-3.2	13.1	12.5	-0.8
Cc1nn(C(C)C(=O)Nc2ccccc2Cl)c(=O)c2nn(-c3ccccc3)c(C)c12 (stereo not drawn)	-13.9	4564	1.5	8.7	16.7	5.7	-9.4
Cc1ccc(C)c(OCc2cc(C(=O)NC3CCOC(C)(C)C3)no2)c1 (stereo not drawn)	-43.5	5558	1.8	6.1	11.9	4.9	-2.9
Cc1nc(-c2ccccn2)sc1C(=O)Nc1ccc(F)cc1F	-36.3	9063	2.7	-8.9	11.0	0.9	29.2
CCCCCC(=O)Nc1ccc(N2CCN(C(=O)CCC)CC2)cc1	10.5	4751	-2.2	-0.3	nt	nt	-6.2
O=C(Nc1nnc(SCc2cccnc2)s1)C1CC(=O)N(c2ccccc2)C1 (stereo not drawn)	-15.4	?	1.7	4.6	14.5	11.3	2.2
C=CCn1cc(C(=O)OC)c(=O)c2cc(S(=O)(=O)N(CC)CC)ccc21	-21.5	10478	6.5	12.1	16.6	6.0	-4.5
CCn1c(-c2ccccc2)ccc(C#N)c1=O	-8.8	5428	13.2	8.4	3.1	2.5	-5.5
COc1ccccc1CNC(=O)CCCn1nc(C)c2c(C)n(-c3ccccc3)nc2c1=O	-3.2	5060	-0.8	3.1	12.2	4.3	-16.0
Cc1ccc2[nH]c(=O)c(CN(Cc3ccccc3Cl)C(=O)N3CCOCC3)cc2c1	-18.6	3570	4.1	-0.4	-2.9	6.1	0.2
O=C(CN1CCc2ccccc2C1)Nc1ccc(F)cc1F	3.6	4255	9.1	5.9	4.7	-4.9	12.1
COc1ccc(CCNCC(O)COc2cccc(Br)c2)cc1 (stereo not drawn)	-12.6	4614	-0.4	-3.7	15.2	5.6	7.1
COc1cc(C(=O)NNC(=O)c2cccn2C)cc(OC)c1OC	0.3	nt	1.4	0.9	1.2	2.9	9.5

Quoted from the listing:
For Sa RN4220 lethal, CCn1c(-c2ccccc2)ccc(C#N)c1=O has 13.2
For Bead autofluor, O=C(COC(=O)CCC(=O)c1ccc(F)cc1)Nc1ccc2[nH]c(=O)[nH]c2c1 has 4208
For Mtb hypoxia rep growth, COc1ccc(CCNCC(O)COc2cccc(Br)c2)cc1 (stereo not drawn) has 5.6
For Bead autofluor, Cc1ccc2[nH]c(=O)c(CN(Cc3ccccc3Cl)C(=O)N3CCOCC3)cc2c1 has 3570

Not a hit list. About 4% of those tested had a hit in this group.
